High-throughput results as filed in PubChem.
StopGo FLuc: FMDV 2A StopGo reporter, firefly signal; HEK cells with a luciferase reporter of 2A StopGo recoding; Potency, µM (top dose mostly 57.5 µM), inactives show top-dose signal change, negative = less light; 120,000 tested, 0.23% active; active = well fitted falling curve with a large enough effect; inconclusive = small, poorly fitted or top-dose-only effect; inactive = no such curve, though single readings can be large or run the other way; also: nearly all actives have a fitted effect of over 60% in size; overnight with compound
2A Renilla: FMDV 2A StopGo reporter, Renilla signal; HEK cells with a luciferase reporter of 2A StopGo recoding; Potency, µM (highest dose often 57.5 µM), for inactives: at the highest dose signal change, negative = less light; 120,000 tested, 0.32% active; active means well fitted falling curve with a large enough effect; inconclusive means small, poorly fitted or top-dose-only effect; inactive means no such curve, though single readings can be large or run the other way; also: nearly all actives have a fitted effect of over 55% in size; overnight with compound
The depositor's hits bear a star; u = inconclusive; [ ] = another dose, or the depositor's remark. % is scaled to controls: 0 for no effect and ±100 for the full control effect; potency is read from the fitted curve at half-maximal effect. Not all compounds are listed, so the mix of outcomes need not match the whole.

#1 O=C(Nc1ccccc1F)C(Cc1ccccc1)N1Cc2ccccc2C1=O (centres undefined)
#2 C=CCc1ccccc1OCc1nc2ccc(C)cc2[nH]1
#3 CCOc1ccc(NC(=O)CSc2nc(-c3cccc(Cl)c3)nc3c2Cc2c(CO)cnc(C)c2O3)cc1
#4 COc1cc(NC(=O)CSc2nnc(C)n3c2cc2oc(C)cc23)cc(OC)c1
#5 Cc1ccc(-c2[nH]c3ccccc3c2C=O)c(C)c1
#6 COC(=O)c1c(NC(=O)CS(=O)(=O)c2ccc(C)cc2)sc2c1CCCCC2
#7 O=C(NCCCN1CCN(c2cccc(Cl)c2)CC1)c1sc2ncccc2c1-n1cccc1
#8 CCCSc1oc(-c2cccs2)nc1S(=O)(=O)c1ccc(Cl)cc1
Assay by compound | 1 | 2 | 3 | 4 | 5 | 6 | 7 | 8
StopGo FLuc | -18.7% | 47.8%[activator] | -16.2% | -2.7% | 178.4%[activator] | 1.2% | -28.9% | -13.3%
2A Renilla | 51.2%[activator] | 40.5%[activator] | -10.6% | -9.0% | 21.6% | 7.5% | -13.1% | 79.2%[activator]

Brought forward from above: four compounds; new compounds follow.
#5 Cc1ccc(-c2[nH]c3ccccc3c2C=O)c(C)c1
#6 COC(=O)c1c(NC(=O)CS(=O)(=O)c2ccc(C)cc2)sc2c1CCCCC2
#7 O=C(NCCCN1CCN(c2cccc(Cl)c2)CC1)c1sc2ncccc2c1-n1cccc1
#8 CCCSc1oc(-c2cccs2)nc1S(=O)(=O)c1ccc(Cl)cc1
#9 Cc1cc(C)c2oc(-c3cccc(NC(=O)c4cccs4)c3)nc2c1
#10 CC(=O)c1cccc(NCC(=O)Nc2ccccc2C#N)c1
#11 CCOc1ccc(NC(=O)c2ccccc2Cl)c2cccnc12
#12 COC(=O)c1ccccc1NC(=O)c1cc2c(s1)-c1ccccc1OC2
#13 CN(CC(=O)NC(=O)NCC(F)(F)F)Cc1cccc(F)c1
#14 Cc1nc(NCc2ccccc2)sc1C(=O)NCC(C)C
#15 COc1ccc(Cc2nnc(Nc3ccccc3)[nH]c2=O)cc1OC
#16 CCSc1nnc2c(n1)OC(C)N(C(=O)CC)c1ccccc1-2 (centres undefined)
Assay by compound | 5 | 6 | 7 | 8 | 9 | 10 | 11 | 12 | 13 | 14 | 15 | 16
StopGo FLuc | 178.4%[activator] | 1.2% | -28.9% | -13.3% | 62.9%[activator] | 55.5%[activator] | 27.3% | 2.0% | -3.2% | 34.4%[activator] | 11.6% | -0.6%
2A Renilla | 21.6% | 7.5% | -13.1% | 79.2%[activator] | 4.7% | 2.6% | -1.8% | 0.3% | 17.4% | -12.1% | 2.1% | -5.7%

#17 COc1cc(Nc2ncnc3c2cnn3-c2ccc(Cl)cc2)cc(OC)c1OC
#18 Cn1cc(C(=O)OCC(=O)N2CCCCC2)c2ccccc21
#19 COc1cc(NC(=O)c2cccc(Cl)c2Cl)ccc1NC(=O)c1cc2ccccc2o1
#20 CCCNc1c(NC(=O)NCCc2ccccc2)c(=O)oc2ccccc12
#21 O=C(Cn1nnc2sc3c(c2c1=O)CCCC3)Nc1ccc(F)c(Cl)c1
#22 COc1ccc(-c2nnc(SCC(=O)NCc3ccc(C)cc3)nc2-c2ccc(OC)c(OC)c2)cc1OC
#23 CCCS(=O)(=O)c1nc(S(=O)(=O)c2ccc(C)cc2)c(NC(C)CC)s1 (centres undefined)
#24 Cc1ccc(Cl)cc1N1CCN(C(=O)c2cc(S(=O)(=O)N3CCC(C)CC3)cn2C)CC1
Assay by compound | 17 | 18 | 19 | 20 | 21 | 22 | 23 | 24
StopGo FLuc | 51.6% | 8.1% | -6.9% | 5.9% | -19.5% | -15.0% | -11.4% | -17.5%
2A Renilla | 14.9% | -5.2% | -0.6% | 3.4% | -16.8% | 64.8%[activator] | 137.1%[activator] | -5.7%

#25 O=C(C1COc2cc(S(=O)(=O)NCc3ccc(Cl)cc3)ccc2O1)N1CCOCC1 (centres undefined)
#26 Cc1ccc(C)c(NC(=O)CCl)c1
#27 Cc1ccccc1Nc1cc(C(=O)NC2CCCC2)c2ccccc2n1
#28 Cc1c(Cl)c(C(=O)Nc2sc3c(c2C#N)CCC3)nn1C
#29 O=c1[nH]c(=O)n(CCc2ccccc2)c2c1C(C(F)(F)F)(C(F)(F)F)N=C(c1ccco1)N2
#30 O=C(NC(NC(c1ccccc1)C(Cl)Cl)C(Cl)(Cl)Cl)c1ccccc1 (centres undefined)
#31 O=C(CSCc1ccc(F)cc1)N1CCN(c2ccccc2)CC1
#32 Cn1cc(CCCC(=O)NCc2ccccc2Cl)c2ccccc21
Assay by compound | 25 | 26 | 27 | 28 | 29 | 30 | 31 | 32
StopGo FLuc | 3.7% | u | -19.8% | 52.4%[activator] | -10.3% | 7.2% | 57.6%[activator] | 12.5%
2A Renilla | 132.2%[activator] | u | 5.2% | -10.4% | -22.2% | 9.3% | -0.1% | 81.9%[activator]

#33 Cc1c(C(=O)N2CCCC2)c(S(=O)(=O)NCCc2ccc(Cl)cc2)c(C)n1C
#34 Cc1ccc(NC(CC(=O)c2ccccc2)C(=O)O)cc1Cl (centres undefined)
#35 O=C(Cn1cc(C(=O)c2ccccc2)c2ccccc21)NCc1ccccc1
#36 CCCC1=C(C(=O)OCC)C(c2ccccc2Cl)NC(=O)N1CC (centres undefined)
#37 CCn1nc(C(=O)NCc2cccc(OC)c2)c2ccccc2c1=O
#38 CCc1ccccc1NC(=O)CSC1=C(C#N)C2(CCC(C(C)(C)C)CC2)C(C#N)C(=O)N1 (centres undefined)
#39 COCCCNC(=O)c1ccc(-n2c(-c3ccccc3)cc3c2CCCC3)cc1
#40 COc1nc2ccccc2cc1-c1noc(-c2cccs2)n1
Assay by compound | 33 | 34 | 35 | 36 | 37 | 38 | 39 | 40
StopGo FLuc | 0.0% | 178.9%[activator] | 29.4% | -12.6% | 31.0%[activator] | u | -4.4% | 0.0%
2A Renilla | 0.0% | 2.3% | 66.7%[activator] | -9.7% | 44.0%[activator] | u | -15.5% | -8.4%

#41 CSc1ccccc1C(=O)OC(C)C(=O)c1ccc(C(C)(C)C)cc1 (centres undefined)
#42 Cc1nn(CC(=O)Nc2ccccc2)c(C)c1S(=O)(=O)N1CCC(C)CC1
#43 Cc1ccc(C(=O)Nc2ccc3oc(-c4cccnc4)nc3c2)cc1[N+](=O)[O-]
#44 CC(C)c1nnc(NC(=O)c2cc(=O)c3cc(Cl)ccc3o2)s1
#45 NC(=O)c1nn(CC(=O)N2CCN(CC(=O)N3CCCCCC3)CC2)c(=O)c2ccccc12
#46 CC(C)Oc1ccc(CNC(=O)Cn2c(-c3cccs3)cc3ccccc32)cc1
#47 Cc1ccc2c(c1)-c1c(c(C(=O)N3CCN(c4cc(Cl)ccc4C)CC3)nn1C)CS2
#48 CC(=O)Nc1ccc(NC(=O)CCc2nc3ccccc3c(=O)[nH]2)cc1
Assay by compound | 41 | 42 | 43 | 44 | 45 | 46 | 47 | 48
StopGo FLuc | 8.1% | 0.9% | 33.2%[activator] | -8.0% | 6.5% | -8.9% | -13.3% | -3.8%
2A Renilla | 13.7% | 16.7% | -1.3% | -6.2% | -3.7% | -3.5% | -6.4% | -2.9%

#49 CC(C)c1cccc(C(C)C)c1NC(=O)COC(=O)c1ccc2c(c1)NC(=O)CS2
#50 CCCCOc1ccc2c(C)c(C)c(=O)oc2c1C
#51 CCOC(=O)N1CCN(Cc2cc(=O)oc3cc(C)c(C)cc23)CC1
#52 Cc1nc2ncnn2c(C)c1CCC(=O)Nc1cccc(S(=O)(=O)N2CCOCC2)c1
#53 Cc1ccc(C)c(NC(=O)CSc2nc(-c3ccccc3)cc(=O)[nH]2)c1
#54 CCOc1ccccc1N1CC(c2nc3ccccc3n2CCCOc2ccccc2OC)CC1=O (centres undefined)
#55 O=C1CC(c2cccc(F)c2F)c2c(n3c(nc4ccccc43)[nH]c2=O)N1 (centres undefined)
#56 O=C(COc1ccc(-c2ccccc2)cc1Cl)Nc1ncn[nH]1
Assay by compound | 49 | 50 | 51 | 52 | 53 | 54 | 55 | 56
StopGo FLuc | -9.2% | 121.9%[activator] | 19.6% | 21.5% | -3.5% | -4.3% | -6.5% | 161.5%[activator]
2A Renilla | -15.1%[1.06 µM] | 29.1% | 10.7% | 0.7% | -9.9% | 3.4% | -11.0% | -12.6%

#57 CC1CCN(C(=O)CSc2c3c(nc4cc(Cl)ccc24)CCCC3)CC1
#58 COc1cc(NC(=O)C2c3ccccc3Oc3ccccc32)c(OC)cc1Cl
#59 COc1cccc(-n2cc(C(=O)Nc3cc(C)c(Cl)cc3OC)c3ccccc3c2=O)c1
#60 Clc1ccc(-c2onc3ccc(-c4ccccc4)cc23)cc1
#61 COc1cc(Cl)c(NC(=O)c2cc(CN3CCCC3)on2)c(OC)c1
#62 O=C(Cn1ccc2cc(S(=O)(=O)N3CCCCC3)ccc21)N1CCOCC1
#63 COc1cc2nc(Nc3cccc(F)c3)nc(N)c2cc1OC
#64 COc1ccccc1N1CCN(C(=O)c2ccc3c(c2)N(Cc2ccccc2)C(=O)c2ccccc2S3(=O)=O)CC1
Assay by compound | 57 | 58 | 59 | 60 | 61 | 62 | 63 | 64
StopGo FLuc | -4.4% | -0.6% | -6.9% | 9.2% | -9.2% | 2.6% | 41.7%[activator] | u
2A Renilla | 15.4% | -10.7% | -1.1% | 4.3% | -3.4% | 9.3% | 29.7% | 0.0%

#65 Cc1nn(CC(=O)N2CCN(c3ccccc3F)CC2)c(=O)c2cccn12
#66 COc1ccc(NC(=O)CCc2nc3cccnc3n2-c2ccccc2)c(OC)c1
#67 CCCCOc1ccc(C(N)C(=O)OCC)cc1 (centres undefined)
#68 CC(C)(C)c1ccc(NC(=O)CN2C(=O)COc3ccccc32)cc1
#69 C=CCNc1nc(C(=O)OCC(=O)N(C)CC(=O)Nc2ccc(F)cc2)cs1
#70 CSc1nc(C)c(CCC(=O)NC(c2ccccc2)C(C)C)c(C)n1 (centres undefined)
#71 c1ccc2c(Nc3ccc4[nH]ncc4c3)ncnc2c1
#72 Cc1cc(C)c(C(=O)Oc2c(C)cccc2C)c(C)c1
Assay by compound | 65 | 66 | 67 | 68 | 69 | 70 | 71 | 72
StopGo FLuc | 24.6% | 13.5% | 3.6% | 18.8% | -11.4% | 5.7% | 156.8%[activator] | 2.1%
2A Renilla | u | 1.4% | -7.1% | -8.1% | -17.0% | -1.2% | 12.4% | 1.7%

#73 COc1ccc(C=O)cc1OCc1c(F)cccc1Cl
#74 COc1ccc(CNC(=O)C2CCN(c3nc4ccccc4o3)CC2)cc1
#75 COc1ccccc1-c1nc(C#N)c(N2CCN(C(=O)c3ccc(Cl)cc3)CC2)o1
#76 Cc1cccc(C)c1-n1nnnc1C(C)(C)Nc1ccc2c(c1)OCCO2
#77 O=C(Nc1sc2c(c1C(=O)Nc1ccc(Cl)cc1)CCCC2)c1cccs1
#78 C=CCNc1oc(-c2ccco2)nc1S(=O)(=O)c1ccc2c(c1)OCCO2
#79 CCN1C(=O)C2(C(=C(O)c3ccc4c(c3)OCCO4)C(=O)C(=O)N2CCOC)c2ccccc21 (centres undefined)
#80 O=Cc1ccccc1C=O
Assay by compound | 73 | 74 | 75 | 76 | 77 | 78 | 79 | 80
StopGo FLuc | 8.0% | -27.6% | 3.1% | 2.1% | -7.2% | -20.4% | -10.2% | -21.4%
2A Renilla | 0.3% | -37.9% | -3.0% | 57.1%[activator] | -13.9% | 138.9%[activator] | -17.0% | -14.8%

#81 CC(C)Nc1nc2c(-c3cccc(Br)c3)nnn2c2ccccc12
#82 CCC(=O)NC(=S)Nc1cccc(C(=O)N(CC)CC)c1
#83 Cc1nc2cc(NC(=O)c3cc(Cl)ccc3Cl)ccc2o1
#84 CC(C)c1ccc(-c2noc(CSc3nnc(C4COc5ccccc5O4)o3)n2)cc1 (centres undefined)
#85 CCN(CC)C(=O)c1sc2c(c1C)c(=O)n(Cc1ccccc1)c(=O)n2Cc1ccccc1C
#86 O=C(Nc1ccc(F)c(F)c1)c1ccc(-c2ccccc2)cc1
#87 CCOC(=O)c1sc(NC(=O)Nc2ccccc2Br)nc1C
#88 COc1ccc2c(c1C)CCC/C2=N\OC(=O)c1ccccc1F
Assay by compound | 81 | 82 | 83 | 84 | 85 | 86 | 87 | 88
StopGo FLuc | 313.7%[activator] | -4.1% | 32.4%[activator] | 119.8%[activator] | -13.5% | 176.4%[activator] | 87.3%[activator] | 2.2%
2A Renilla | -12.4% | 3.5% | 16.5% | 16.9% | 37.9%[activator] | 40.8%[activator] | 5.7% | 3.4%

#89 CCN1CCN(c2cc(C)c3cc(NC(=O)CC4CCCCC4)ccc3n2)CC1
#90 O=C(NCc1cccc(Cl)c1)C1CCCN(c2ncnc3onc(-c4ccc(F)cc4)c23)C1 (centres undefined)
#91 COc1cc2c(cc1OC)C(C)N(CC(=O)Nc1ccc(C)c(C)c1)CC2 (centres undefined)
#92 O=C(O)CCCC(=O)Nc1ccc(C(=O)N2CCCCCC2)cc1
#93 COCCn1c2c(c(=O)[nH]c1=O)C(c1cccc(Cl)c1)C1=C(N2)c2ccccc2C1=O (centres undefined)
#94 Clc1ccc(CCNc2nc3cc(Cl)c(Cl)cc3n3cnnc23)cc1
#95 CSCCC(NS(=O)(=O)c1ccc2c(c1)oc(=O)n2C)C(=O)Nc1ccc(C)c(F)c1 (centres undefined)
Assay by compound | 89 | 90 | 91 | 92 | 93 | 94 | 95
StopGo FLuc | 28.4% | 14.0% | -11.3% | 13.2% | 31.2%[activator] | -8.1% | 42.5%[activator]
2A Renilla | 21.4% | 1.5% | -4.5% | 10.4% | 0.0% | -7.2% | 53.0%[activator]
